Bead autofluor: counter-screen for toxin protease inhibitors: compound fluorescence | compound autofluorescence counterscreen, microsphere flow cytometry; stronger effect = higher value | fluorescence intensity (no concentration beside the values) | actives 3.1% (n = 360,000) | AID 624483;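 active means at least 3 SD above the mean of all compounds, about 16000 in these data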;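 further: 100 nL of 1 mM stock went into each well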
PrP 5UTR inh: suppresses PrP 5' UTR mRNA reporter expression; cell-based PrP 5' UTR mRNA reporter, plate reader; inhibition, % (concentration not given with the values); actives 0.35% (n = 340,000); AID 488862;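 active means every replicate at 50% or more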;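 further: 0 = median of the neutral control wells; tested in H4 reporter cells; numbers are from one replicate; inactives centre near -14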
The depositor's hits bear a star. Some of the compounds tested. The share of hits here may be higher or lower than overall.

Preview:
SMILES	Bead autofluor	PrP 5UTR inh
COc1ccc2nc3cc(Cl)ccc3c(Nc3ccc(O)c(CN4CCN(C)CC4)c3)c2c1	2901	-20
COC1=C(N)C(=O)c2nc(C)ccc2C1=O	3719	-32
CCCCN1CC(=O)N2[C@@H]3c4cc(OC)ccc4OC[C@@H]3[C@H](C(=O)OCC)[C@]2(C)C1=O	3474	-19
COC(=O)C1=C(c2cccc(OCc3ccccc3)c2)C[C@@H]2CC[C@H]1N2C(=O)NCc1ccc(Br)cc1	3880	-11
N#CC1=C(N)Oc2[nH]c(=S)[nH]c(=O)c2C12C(=O)Nc1ccccc12 (centres undefined)	3622	-12
CC(C)NC(=O)Nc1ccc2c(c1)C(=O)N([C@H](C)CO)C[C@H](C)[C@@H](CN(C)S(=O)(=O)c1ccccc1)O2	2874	-25
COc1ccc(-c2ccc3c(c2)S(=O)(=O)c2cccc(C(=O)NC[C@@H]4CCCO4)c2C3=O)cc1OC	3721	6
CC[N+](CC)(CC)CCOc1cccc(OCC[N+](CC)(CC)CC)c1OCC[N+](CC)(CC)CC	5997	-27
C=C[C@@H]1c2cc(C)ccc2N(S(=O)(=O)c2ccc(C)cc2)[C@H](c2ccc(OC(C)=O)cc2)C1(C#N)C#N	4161	-34
COc1ccc(C2(SCC(N)C(=O)O)c3ccccc3-c3ccccc32)cc1 (centres undefined)	3671	34
C[C@@H]1CN([C@@H](C)CO)C(=O)c2cc(NS(C)(=O)=O)ccc2O[C@@H]1CN(C)Cc1ccc(C(F)(F)F)cc1	2960	-3
CC1(C)C[C@H]2C3=CCC4[C@@]5(C)CC[C@H](O)[C@](C)(CO)C5CC[C@@]4(C)[C@]3(C)C[C@H]3O[C@@H]1[C@H](O)[C@]32CO (some centres undefined)	4213	-4
CCN(Cc1cccs1)C(=O)CN1C(=O)NC(c2ccccc2)(c2ccccc2)C1=O	2970	-1
Cc1nn(C)c(Cl)c1S(=O)(=O)N[C@@H](c1ccccc1)[C@]1(C)C[C@H]1[C@@H](C)C(=O)Nc1ccc2ccccc2c1	2946	-8
CN(CC=CCN(C)P(=S)(N1CC1)N1CC1)P(=S)(N1CC1)N1CC1	4147	1
Nc1ccc(S(=O)(=O)Nc2cnc3c(Cl)cccc3n2)cc1	3792	-43

Results, previewed entries included:
SMILES	Bead autofluor	PrP 5UTR inh
COc1ccc2nc3cc(Cl)ccc3c(Nc3ccc(O)c(CN4CCN(C)CC4)c3)c2c1	2901	-20
COC1=C(N)C(=O)c2nc(C)ccc2C1=O	3719	-32
CCCCN1CC(=O)N2[C@@H]3c4cc(OC)ccc4OC[C@@H]3[C@H](C(=O)OCC)[C@]2(C)C1=O	3474	-19
COC(=O)C1=C(c2cccc(OCc3ccccc3)c2)C[C@@H]2CC[C@H]1N2C(=O)NCc1ccc(Br)cc1	3880	-11
N#CC1=C(N)Oc2[nH]c(=S)[nH]c(=O)c2C12C(=O)Nc1ccccc12 (centres undefined)	3622	-12
CC(C)NC(=O)Nc1ccc2c(c1)C(=O)N([C@H](C)CO)C[C@H](C)[C@@H](CN(C)S(=O)(=O)c1ccccc1)O2	2874	-25
COc1ccc(-c2ccc3c(c2)S(=O)(=O)c2cccc(C(=O)NC[C@@H]4CCCO4)c2C3=O)cc1OC	3721	6
CC[N+](CC)(CC)CCOc1cccc(OCC[N+](CC)(CC)CC)c1OCC[N+](CC)(CC)CC	5997	-27
C=C[C@@H]1c2cc(C)ccc2N(S(=O)(=O)c2ccc(C)cc2)[C@H](c2ccc(OC(C)=O)cc2)C1(C#N)C#N	4161	-34
COc1ccc(C2(SCC(N)C(=O)O)c3ccccc3-c3ccccc32)cc1 (centres undefined)	3671	34
C[C@@H]1CN([C@@H](C)CO)C(=O)c2cc(NS(C)(=O)=O)ccc2O[C@@H]1CN(C)Cc1ccc(C(F)(F)F)cc1	2960	-3
CC1(C)C[C@H]2C3=CCC4[C@@]5(C)CC[C@H](O)[C@](C)(CO)C5CC[C@@]4(C)[C@]3(C)C[C@H]3O[C@@H]1[C@H](O)[C@]32CO (some centres undefined)	4213	-4
CCN(Cc1cccs1)C(=O)CN1C(=O)NC(c2ccccc2)(c2ccccc2)C1=O	2970	-1
Cc1nn(C)c(Cl)c1S(=O)(=O)N[C@@H](c1ccccc1)[C@]1(C)C[C@H]1[C@@H](C)C(=O)Nc1ccc2ccccc2c1	2946	-8
CN(CC=CCN(C)P(=S)(N1CC1)N1CC1)P(=S)(N1CC1)N1CC1	4147	1
Nc1ccc(S(=O)(=O)Nc2cnc3c(Cl)cccc3n2)cc1	3792	-43
O=C(Nc1c(Cl)cc2c(c1Cl)Cc1cc([N+](=O)[O-])ccc1-2)C(Cl)Cl	3629	82*
COC(=O)[C@@]12CCCN1[C@H](c1ccc(-c3ccc(C(C)=O)cc3)c(OC)c1)[C@H]1C(=O)N(C)C(=O)[C@H]12	3493	-5
CN(C)c1ccc(/C=C/C(=O)c2ccc3c(c2)OCO3)cc1	6335	-24
COc1ccc2c(c1)C1(C(=O)O)CC=CCC1(C(=O)O)C2 (centres undefined)	3566	-57
Nc1ncc([N+](=O)[O-])s1	4465	-19
COc1cc(OC)c(-c2oc3ccccc3c(=O)c2O)c(OC)c1	3829	-23
COc1cccc2nc3c(C(=O)NCCN(C)C)cccc3cc12	3587	5
O=C1OCC2=C1C(c1ccc(Cl)cc1)c1cc3c(cc1O2)OCO3 (centres undefined)	4381	16
Cc1cccc(C2NC(=O)c3ccccc3N2)c1 (centres undefined)	3307	-26
CC(=O)OCC(=O)[C@H]1CC[C@H]2[C@@H]3CC[C@H]4C[C@H](O)CC[C@]4(C)[C@H]3C(=O)C[C@]12C	4204	-32
C=CC(COCc1ccccc1)N([C@@H](Cc1ccccc1)C(=O)OC)S(=O)(=O)c1ccccc1Br (some centres undefined)	3089	-1
COc1ccc(CN(C)C(=O)c2ccc(NS(=O)(=O)c3ccc4[nH]c(=O)[nH]c4c3)cc2)c(OC)c1OC	4002	-4
COc1cc(OC)c(C=NNC(=S)NC23CC4CC(CC(C4)C2)C3)c(OC)c1	3837	-21
C=CC[C@H](CC(=O)N(CCO)Cc1ccccc1)C(=O)N[C@H](COC(=O)[C@@H](CC=C)Cc1ccc(F)cc1)C(C)(C)C	4084	-6
CC(C)C(=O)Nc1cccc(COc2ccc(CN(Cc3ccccc3)C(=O)OC(C)(C)C)cc2)c1	2901	-14
O=Cc1ccc([B-](F)(F)F)s1	3749	-12
Cc1ccc(C(=O)OCC(=O)Nc2cc(C(C)(C)C)no2)c(C)c1	3924	7
COc1cccc2c1cc([N+](=O)[O-])c1c(C(=O)O)cc3c(c12)OCO3	5737	-21
Nc1c(Br)cc(Br)c2c1-c1ccc([N+](=O)[O-])cc1C2	2466	-14
S=C1NCCN1CC1CCN(CCC23CC4CC(CC(C4)C2)C3)CC1	4255	-3
Cc1ccc(CC2(OCCN(C)C)CCC(C(C)(C)C)CC2)cc1 (centres undefined)	3951	-23
CN(C)c1cccc(F)c1C(=O)NC(=O)Nc1ccc(Cl)cc1	3843	-27
COc1cc(CNc2ccc(S(N)(=O)=O)cc2)ccc1OCc1ccccc1F	3845	-37
N#CC1c2ccccc2-n2nncc2CN1S(=O)(=O)c1ccc(Cl)cc1 (centres undefined)	3102	21
COc1ccc2cc([C@@H](C)C(=O)O)ccc2c1	6906	-20
CC(C)(C)OC(=O)C[C@@H]1C/C=C\C[C@H](CC(=O)N[C@@H](CO)Cc2ccccc2)C(=O)N[C@H](C(C)(C)C)COC1=O	3343	-37
COc1ccc(NC(=O)Nc2cccc3c2O[C@H](CN(C)S(=O)(=O)c2cccs2)[C@@H](C)CN([C@H](C)CO)C3=O)cc1	3825	-4
Cc1cn([C@H](C(=O)NCCCCCCCCCCC(=O)N2CCN(C(=O)OC(C)(C)C)CC2)[C@@H](C)O)nn1	2928	-12
O=c1[nH]c2c(c(=O)n1-c1ccccc1)CCO2	2950	-5
COc1ccc(-c2cccc3c2NC(=O)C3=O)cc1OC	4073	-10
O=C(Cc1c(Cl)cccc1Cl)N/N=C/c1cccnc1	5429	-15
C/C(Cc1ccccc1)=N\NC(=O)CNC(=O)c1ccc(Br)cc1	2015	4
CC(=O)Nc1ccc(C=C2C(=O)NC(=O)NC2=O)cc1	2923	10
CC(=O)Nc1ccc(SCCN2CC[C@@H](C(C)(C)C)CCC2=O)cc1	4054	-25
CCOC(=O)[C@H]1[C@H]2COc3ccc(C)cc3[C@@H]2N2C(=O)c3cc(OC)c(OC)cc3NC(=O)[C@@]12C	4158	-5
CCC(C)(O)C(=O)N[C@H]1CCCN1C(=O)/C=C/c1ccccc1 (some centres undefined)	3862	-7
CC(C)(C)S(=O)N1Cc2ccc(CO)cc2[C@@H]1CCO (some centres undefined)	4013	5
CCOC(=O)[C@H]1[C@H]2COc3ccc(Cl)cc3[C@@H]2N2C(=O)CN(Cc3ccc(Cl)cc3)C(=O)[C@@]12C	3872	-20
O=C1N[C@@H](c2ccccc2)COC(=O)[C@@H](Cc2ccc(F)cc2)C/C=C\C[C@H]1CC(=O)N(CCO)Cc1ccccc1	2919	14
CCOc1cc(C)nc(N2CCC(C(=O)NCC3CCCO3)CC2)n1 (centres undefined)	3655	-4
Cc1[nH]nc(C(=O)NN=Cc2ccccc2Cl)c1N=NN(C)C	3738	-30
O=C(Cn1cc(COc2c(F)c(F)c(Br)c(F)c2F)nn1)c1ccc(O)cc1	3929	-29
Brc1ccc(N=C/C=C/C=C/Nc2ccc(Br)cc2)cc1	11763	-24
Cc1ccc(CN2CC(=O)N3[C@H]4c5ccccc5OC[C@@H]4[C@H](c4ccccc4)[C@]3(C)C2=O)cc1	3093	-11

Continued:
SMILES	Bead autofluor	PrP 5UTR inh
c1ccc2c(c1)c1c(c3ccccc32)CN2CCCC2C1 (centres undefined)	5284	-1
COCCCNC(=O)C(=O)N/N=C/c1ccc(OCC(=O)Nc2cccc(Cl)c2C)c(OC)c1	3449	-11
C[C@]12CC[C@H](O)CC1=CCC1C2CC[C@]2(C)C(=O)[C@H](Br)CC12 (some centres undefined)	3543	-14
COc1ccc(NC(=O)Nc2ccc3c(c2)C(=O)N([C@H](C)CO)C[C@H](C)[C@@H](CN(C)C(=O)Nc2ccc4c(c2)OCO4)O3)cc1	2852	-4
O=S(=O)(N(Cc1ccccc1)[C@@H](CO)Cc1ccccc1)N(Cc1ccccc1)[C@@H](CO)Cc1ccccc1	3464	-15
Cc1cn(CC(=O)NCCc2ccccn2)c(=O)[nH]c1=O	3810	-9
CCOc1cc(C(=O)N/N=C/c2ccoc2)cc(OCC)c1OCC	6369	-16
S=C(NC1CC1)SCc1ccco1	4194	-20
Nc1cc2[nH]c(=O)c3ccccc3c2cc1Br	4394	-13
C/C(=N\NC(=O)CCC(=O)Nc1ccc(C)c(C)c1)C1CC1	6124	-29
O=C(NN=Cc1cc(Cl)ccc1[N+](=O)[O-])c1ccco1	3204	-55
NC1(C#Cc2ccc3c(=O)c4ccccc4sc3c2)CCCCC1	4558	23
NC(=O)c1ncn([C@@H]2O[C@H](CNC(=O)[C@H](N)CSCc3ccccc3)[C@@H](O)[C@H]2O)n1	3561	-23
COc1ccc([C@H]2CC(=O)C=C(c3ccc(F)cc3OCc3ccccc3)C2)cc1OC	3026	-8
CCCCN1CC(COCc2ccccc2)Oc2cccc(NCc3ccc(OC)cc3)c2S1(=O)=O (centres undefined)	3931	-21
CCC/C(=C1/c2ccccc2C(=O)N1c1ccccc1)c1ccc2c(c1)OCCO2	3391	-14
OC[C@H]1NC[C@@H](O)[C@@H]1O	5787	-18
CN1C[C@@H]2[C@@H]3C(=O)N(Cc4ccccc4)C(=O)[C@@H]3[C@](C)(C1=O)N2C(=O)c1ccc(C(C)(C)C)cc1	4140	-8
C[C@@]12C(=O)Nc3cc(Cl)ccc3C(=O)N1[C@H]1c3cc(Cl)ccc3OC[C@@H]1[C@@H]2c1ccccc1	4213	-6
Cc1ccc(S(=O)(=O)NCCC(=O)NNC(=O)COc2ccc(Br)cc2)cc1C	4175	-20
CC(O)(P(=O)(O)O)P(=O)(O)O	6018	-5
COc1cccc(C2=CC(=O)C[C@H](c3ccc(F)cc3)C2)c1OC	3816	2
CC[C@H](C)[C@@H](NC(=O)O[C@@H]1C(=O)c2cc(OC)ccc2O[C@H]1c1ccc(OC)c(Br)c1)C(=O)OC	4054	-19
O=C(CCC(=O)Nc1cccc([N+](=O)[O-])c1)N/N=C/c1cccs1	4343	0
CCOC(=O)N(O)c1ccc(C=Cc2ccccc2)cc1	4268	-74
c1ccc2cc(CCO[C@H]3CCCCO3)ncc2c1	2846	30
COC(=O)c1ccc(CCc2cc(O)c(Br)cc2O)cc1	4716	87*
CCCNC(=O)N1[C@H]2CC[C@@H]1C(C(=O)OC)=C(c1cccc(C#N)c1)C2	3976	-13
COc1ccc(-c2[nH]ncc2/C=N\NC(=O)c2cccs2)cc1OC	6526	-12
CC(Oc1ccccc1Cl)C(=O)Nc1ccc(S(=O)(=O)N2CCOCC2)cc1 (centres undefined)	3788	-61
ON=C1c2ccccc2-c2ccc(Br)cc21	3532	-35
C=CC[C@@H](CC(=O)NCCO)C(=O)N[C@@H](COC(=O)[C@@H](CC=C)CC(=O)OC(C)(C)C)Cc1ccccc1	2970	-25
COc1ccc(C2=CC(=O)C[C@H](c3ccc(F)cc3)C2)c(OC)c1	4185	-23
Cc1ccccc1S(=O)(=O)N1C[C@H]2CON(C)[C@H]2C[C@H]1c1cccc(Oc2ccccc2)c1	3536	-5
COC(=O)C1=C(c2ccc(F)cc2F)C[C@@H]2CC[C@H]1N2C(=O)NCCCOC(C)C	3457	-8
Cc1ccc(S(=O)(=O)N2[C@@H](c3ccc(F)cc3)C(C(=O)O)=CC[C@H]2c2cccc(C)c2)cc1	3008	-20
OC[C@H]1O[C@H](OC[C@H]2OC(O)[C@H](O)[C@@H](O)[C@@H]2O)[C@H](O)[C@@H](O)[C@@H]1O (some centres undefined)	5769	-8
O=C(NCCc1ccccc1)c1cccc(NC(=O)C2CC2)c1	3260	-77
C[C@H](CO)N1C[C@H](C)[C@@H](CN(C)S(=O)(=O)c2ccccc2)Oc2c(NC(=O)c3ccncc3)cccc2C1=O	3803	-7
